HPGD inh: qHTS Assay for Inhibitors of HPGD (15-Hydroxyprostaglandin Dehydrogenase). 15-hydroxyprostaglandin dehydrogenase [NAD(+)] (Homo sapiens), P15428. purified HPGD, NADH fluorescence kinetic, PGE2 substrate. Potency, µM, for inactives: at the highest dose activity change, negative = inhibition, most hits filed as inhibitors. 150,000 compounds, 4.3% hits. AID 894, 2007; active = well fitted inhibition curve with a large enough effect (not every such curve was filed as active); inconclusive = small, poorly fitted or top-dose-only effect, or another doubt; inactive = no such curve, though single readings can be large or run the other way;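 further: top concentration of the series not given in the record; plate controls included wells without enzyme; inactives centre near -10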
Target sequence (P15428 whole entry, looked up): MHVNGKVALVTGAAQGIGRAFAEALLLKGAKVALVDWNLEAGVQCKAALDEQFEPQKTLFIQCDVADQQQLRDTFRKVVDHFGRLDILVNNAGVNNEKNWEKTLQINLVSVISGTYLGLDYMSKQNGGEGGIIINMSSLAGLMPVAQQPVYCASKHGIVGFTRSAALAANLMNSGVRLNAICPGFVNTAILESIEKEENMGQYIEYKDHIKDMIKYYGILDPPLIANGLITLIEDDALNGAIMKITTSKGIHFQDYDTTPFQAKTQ
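20 nM HPGD preincubated 15 min at room temperature with compound in 50 mM Tris-HCl pH 8, 0.01% Tween 20. Started with 1 mM NAD+ and 30 uM prostaglandin E2; NADH fluorescence (360/450 nm) read 5 times over 30-s intervals, last minus first.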
Numbers without * were called inactive; u = inconclusive; & = joins results of further samples. On the % scale 0 is the no-effect control and ±100 the full control effect; potency means the concentration at half of the fitted maximal effect.

HPGD inh | structure
-1.0% | COCCN1C(=O)N[C@@H](c2cccc(C(F)(F)F)c2)[C@H](C(=O)OC)[C@H]1C
-17.4% | COc1cccc(C(=O)COC(=O)C(C)N2C(=O)c3ccccc3C2=O)c1 (configuration not stated)
-17.1% | O=c1c2ccccc2nc2n1C(CSCc1ccccc1)CS2 (configuration not stated)
-11.6% | COc1ccccc1C1C(C#N)=C(N)Oc2c1c(-c1ccccc1)nn2-c1ccccc1 (configuration not stated)
-1.3% | CC1CCN(Cc2nnnn2-c2ccc(Cl)cc2)CC1
0.0% | O=C(c1ccc(Br)o1)N1CCN(c2ccc(F)cc2)CC1
-2.6% | CCOC(=O)N/N=C(\C)c1ccc(OC(F)F)cc1OC(F)F
-10.6% | COc1ccc(N=CC2=C(O)CC(c3ccccc3)CC2=O)c(OC)c1 (configuration not stated)
u | Cc1ccc(-n2c(C)cc(C=C3C(=O)CC(C)(C)CC3=O)c2C)cc1
-8.5% | CN(C)CCCN1C(=O)C(=O)/C(=C(/O)c2ccc(S(=O)(=O)N(C)C)cc2)C1c1ccncc1 (configuration not stated)
-2.2% | Cc1ccc(SCC(=O)Nc2ccc(N3CCN(c4ccccc4)CC3)c(F)c2)cc1
-14.3% | O=C(Nc1nc(=O)c2ccccc2s1)c1ccccc1
-13.7% | Cc1ccc(NS(=O)(=O)c2cc(C(=O)NCCSc3ccc(C)cc3)ccc2C)cc1
-13.0% | CC(=O)N1CN(C2CCS(=O)(=O)C2)Cc2c1sc1c2CCCC1 (configuration not stated)
14.1µM* | CC(C)CC(=O)Nc1nc(=S)ss1
-1.1% | Cc1oc(C(C)(C)C)cc1C(=O)N1CCCC1C(=O)O (configuration not stated)
-22.1% | CC(OC(=O)c1ccccc1NS(=O)(=O)c1cccc(N)c1)C(=O)N(C)Cc1ccccc1 (configuration not stated)
-21.1% | Cc1cc(NC(=O)c2cnn3c(C(F)(F)F)cc(-c4ccccc4)nc23)no1
0.8% | CNC(=O)CSc1nnc(-c2cccc(S(=O)(=O)N3CCOCC3)c2)n1-c1ccc(F)cc1
u | O=C(/C=C/c1ccc2c(c1)OCO2)N1CCOCC1
-16.9% | c1csc(CNc2ncnc3nc[nH]c23)c1
-18.6% | O=C(c1ccc2nccnc2c1)N1CCN(Cc2ccc3c(c2)OCO3)CC1
-17.6% | O=[N+]([O-])c1nn(-c2ccccc2)n(O)c1=NCc1ccc2c(c1)OCO2
-17.6% | CC(C)COP(=O)(OCC(C)C)C(O)c1ccccc1F (configuration not stated)
-5.9% | CCOC(=O)C1=NN(C(C)=O)C2(CC(=O)N(c3cc(C)cc(C)c3)C2=O)C1 (configuration not stated)
-16.8% | COC(=O)c1cc2oc3ccccc3c2n1CC(=O)Nc1ccccc1OC
-10.3% | O=Cc1ccc(Cl)c(Cl)c1
u | COc1ccc(NC(=O)c2ccccc2F)cc1Cl
3.7% | COc1ccc(S(=O)(=O)CCC(=O)NCCc2ccc(S(N)(=O)=O)cc2)cc1
-5.4%&-5.1%&-3.5%&-10.9% | CCN(CC)CCNC(=O)c1ccc(N)cc1
-9.9% | CNC(=S)N/N=C/c1c(C)nn(-c2cccc(Cl)c2)c1Cl
25.1µM* | CCCC(C(=O)O)N1C(=O)/C(=C2\C(=O)N(C)c3ccccc32)SC1=S (configuration not stated)
-9.8% | Cn1c2c(c(=O)n(C)c1=O)C(c1cc3c(cc1Br)OCO3)CC(=O)N2 (configuration not stated)
-8.0% | Cc1cccc(C)c1Nc1nnc(SCC(=O)NCc2ccco2)s1
-11.0% | O=C(COc1ccc(Cl)cc1)NCc1nnc(SCC(=O)Nc2ccc3c(c2)OCCO3)o1
-12.1% | CCCNC(=O)c1[nH]c(C)c(C(=O)OCC)c1C
-3.1% | O=S(=O)(c1ccccc1)N1CCC2(CCCN(C(c3ccccc3)c3ccccc3)C2)CC1
-17.5% | O=C(O)c1ccc2c(c1)C(=O)N(CCC1=CCCCC1)C2=O
-8.9% | Cc1cccc2cc(CN(CCN3CCOCC3)C(=O)NCc3ccccc3)c(=O)[nH]c12
28.2µM* | CN(C)c1ccc(C(=S)N2CCCCCC2)cc1
u | Cc1cc(O)c(C(C)C)cc1NC(=O)Cn1nc(C)c2ccccc2c1=O
-0.9% | CCN1C(=O)N[C@@H](c2cccc(C(F)(F)F)c2)C(C(C)=O)=C1C
-12.1% | Cc1occc1-c1nnc(SCC(=O)NC(C)(C)C)n1C(C)c1ccccc1 (configuration not stated)
-11.9% | CCc1cccc(NC(=O)Cn2c3[n+](c4ccc(C(F)(F)F)cc42)CCCCC3)c1
-14.3% | CCOC(=O)N1CCN(CC(O)COCc2ccc(Cl)cc2)CC1 (configuration not stated)
-13.0% | Cc1ccc(CSCC(N)C(=O)O)cc1 (configuration not stated)
-1.9% | C=CCn1c(SCC(=O)NCC(=O)OCC)nnc1-c1ccccn1
-24.6% | N#Cc1cnn2cc(-c3ncc(C(F)(F)F)cc3Cl)cnc12
-4.3%&-5.3%&-7.0%&2.3%&-5.5% | CN(C)C(=O)Oc1cccc([N+](C)(C)C)c1
-21.2% | CCOC(=O)c1c(NC(=O)C(F)(OC)C(F)(F)F)sc2c1CCN(C)C2 (configuration not stated)
-9.2% | CCc1ccc(NC(=O)c2ccc3c(c2)C(=O)N(Cc2ccco2)C3=O)cc1
0.5% | O=C(COc1ccc(Cl)cc1)N1CCN(c2ncccn2)CC1
u | Cc1ccc(-c2nc3cc(N)ccc3o2)c(C)c1
-19.2% | CCSc1nc(=O)n(-c2ccccc2)c(C)c1C(C)=O
-8.3% | CN1CCc2cc3c(cc2C(=O)Cc2ccc4c(c2C1)OCO4)OCO3
-9.7% | Cc1c(C(=O)NCCc2ccccc2)oc2ccc(S(=O)(=O)N3CCC4(CC3)OCCO4)cc12
-26.0% | C[C@H]1O[C@@H](CC(=O)O)Cc2c1c(O)c1c(O)cc(-c3cc(=O)c4c(=O)c5c(c(=O)c=4c3=O)C[C@H](CC(=O)O)O[C@@H]5C)c(O)c1c2O
-9.1% | N#C/C(C(=O)NCc1ccccc1)=C1/SC(Cc2ccc(Cl)cc2)C(=O)N1c1ccccc1 (configuration not stated)
u | COCC(C)OC(=O)/C(C#N)=C\c1coc2ccc(C)cc2c1=O (configuration not stated)
-17.6% | O=C(Nc1cc(C(F)(F)F)ccc1Cl)C(NCc1ccccc1)c1ccccc1 (configuration not stated)

The results go on.
HPGD inh | structure
-13.7% | COc1ccc(CNC(=O)c2c(F)c(F)c(F)c(F)c2F)cc1
-17.8% | Cc1ccccc1NC(=O)Cc1nc(CSc2nnc(-c3ccc4c(c3)OCO4)o2)cs1
-9.4% | Cc1ccccc1Nc1nn2c(=O)c3ccccc3nc2s1
-0.4% | O=C(NNC(=O)c1ccc(Cl)cc1Cl)c1ccncc1
u | COC(=O)C1=CN(Cc2cccs2)C=C(C(=O)OC)C1c1cccc(OC)c1OC
-1.9% | O=C(O)c1ccc(OCc2occc2C(=O)O)cc1
-8.9% | CC(=O)N1Cc2ccccc2CC1C(=O)O (configuration not stated)
-3.2% | CCN(CC)S(=O)(=O)c1ccc(Cl)c(NC(=O)COc2ccccc2[N+](=O)[O-])c1
-0.6% | Cc1cc(C)n(C(=O)CCCCCCCC(=O)n2nc(C)cc2C)n1
u | CCCc1cc(=O)[nH]c(SCC(=O)N2N=C(c3ccc(Cl)cc3)CC2c2ccco2)n1 (configuration not stated)
28.2µM* | CN(Cc1cccs1)S(=O)(=O)c1cccs1
-21.2% | N#CC1=C(N)OC2=C(C(=O)CC(c3ccccc3)C2)C1c1ccoc1 (configuration not stated)
-11.4% | Cc1ccc(CN2C(=O)CCC2(C)C(=O)NCc2cccnc2)cc1 (configuration not stated)
-18.1% | Cc1cc(C(=O)CSc2n[nH]c(N)n2)c(C)n1-c1ccc2c(c1)OCO2
-12.0% | CCC(C(=O)N1CCN(C(=O)c2ccco2)CC1)c1ccccc1 (configuration not stated)
-17.4% | COc1ccc(C)cc1NC(=O)CSc1nnc(-c2ccco2)n1Cc1ccco1
-17.1% | COC(=O)[C@H](COC(C)(C)C)NC(=O)O[C@@H]1Cc2cc(OC)ccc2O[C@H]1c1cccc(OC)c1
-9.5% | CCC(=O)Nc1ccccc1C(=O)C(=O)Nc1ccccc1
-18.5% | CC(Nc1cc(N2CCN(S(C)(=O)=O)CC2)ccc1[N+](=O)[O-])c1ccccc1 (configuration not stated)
u | O=C(c1ccc(=O)[nH]c1)N(Cc1ccco1)C1(C(=O)NC2CCCCC2)CCCCC1
-21.1% | NC(=O)C1CCN(C(=O)CSc2nc3c(c(-c4ccccc4)n2)CCCC3)CC1
-17.0% | O=C(COc1cccc(NC(=O)c2ccccc2)c1)c1ccc(F)cc1
-9.6% | O=S(=O)(c1ccccc1)N1CCC2(CC1)CN(C(c1ccccc1)c1ccccc1)C2
3.5% | COc1ccc(OC)c(N(CC(=O)N2CCCCC2)S(=O)(=O)c2ccc(OC)c(OC)c2)c1

Some of the entries so far, bar-delimited:
compound | HPGD inh
COc1ccc(C)cc1NC(=O)CSc1nnc(-c2ccco2)n1Cc1ccco1 | -17.4%
COC(=O)[C@H](COC(C)(C)C)NC(=O)O[C@@H]1Cc2cc(OC)ccc2O[C@H]1c1cccc(OC)c1 | -17.1%
CCC(=O)Nc1ccccc1C(=O)C(=O)Nc1ccccc1 | -9.5%
CC(Nc1cc(N2CCN(S(C)(=O)=O)CC2)ccc1[N+](=O)[O-])c1ccccc1 (configuration not stated) | -18.5%
O=C(c1ccc(=O)[nH]c1)N(Cc1ccco1)C1(C(=O)NC2CCCCC2)CCCCC1 | u
NC(=O)C1CCN(C(=O)CSc2nc3c(c(-c4ccccc4)n2)CCCC3)CC1 | -21.1%

Additional records
HPGD inh | structure
-12.2% | CCN(CC)C(=O)CSc1nnc(-c2ccco2)n1N
-11.2% | O=C(/C(=N\Nc1ccc([N+](=O)[O-])cc1)Sc1nnnn1-c1ccccc1)c1ccccc1
-18.1% | Nc1c(C(=O)c2ccccc2)sc(Nc2ccccc2)c1S(=O)(=O)c1ccccc1
-10.8% | Nc1cccc2c(=O)[nH][nH]c(=O)c12
-14.1% | CCOc1ccc2nc(-c3ccc(OC)c(OC)c3)cc(C(=O)O)c2c1
-24.2% | CC(C)(C)c1nnc(NC(=O)NS(=O)(=O)c2ccccc2)s1
-10.5% | CC(C)NC(=O)c1nn(C)c2ccccc12
-16.2% | CCOC(=O)c1ccc(NC(=O)Cn2nnc(-c3ccccc3C)n2)cc1
-8.4% | COc1ccc(C(=O)NNC(=O)Cc2ccc([N+](=O)[O-])cc2)cc1
-17.8% | COc1ccc(CNC(=O)COC(=O)c2n[nH]c3ccccc23)cc1
-18.2% | COc1cc2c3nnc(-c4ccc(F)cc4)c-3cn(Cc3ccccc3)c2cc1OC
-6.5% | Cc1cc(C(N)=O)c2ccccc2n1
2.9% | C=CCn1c(SCC(=O)Nc2nccs2)nnc1-c1ccco1
u | COC(=O)C1=C(C)NC2=C(C(=O)CC(C)(C)C2)C1c1cn(Cc2ccc(Br)cc2)nc1-c1ccccc1 (configuration not stated)
-6.4% | CC(NC(=O)C1CCN(S(=O)(=O)c2cc([N+](=O)[O-])ccc2Cl)CC1)c1ccccc1 (configuration not stated)
-17.9% | Cc1ccc(NC(=O)CSCC#N)cc1
-11.0% | C=C(C)c1cccc(C(C)(C)NC(=O)NCC2CCCO2)c1 (configuration not stated)
-7.5% | O=c1cc(NC2CCCCCC2)[nH]c(=O)[nH]1
-12.9% | CCCCOc1ccc(C(=O)NCC(=O)NCC(=O)OCC)cc1
-13.8% | COC(=O)c1sccc1NC(=O)c1csc(C)c1
-12.1% | COCCCNC(=O)C(Cc1ccccc1)NS(=O)(=O)c1ccc2c(c1)c(=O)n(C)c(=O)n2C (configuration not stated)
u | COc1ccc(C(=O)N/N=C/c2ccc(OC)c(CN3CCCc4ccccc43)c2)cc1
-18.2% | CCOc1ccc(C(C)=O)cc1COC(=O)C1=COCCO1
-10.2% | Cc1ccc(-n2nnnc2-c2ccco2)cc1

Sorted by the number under HPGD inh (largest number first): some entries from above
SMILES,HPGD inh
C=CCn1c(SCC(=O)Nc2nccs2)nnc1-c1ccco1,2.9%
COCCCNC(=O)C(Cc1ccccc1)NS(=O)(=O)c1ccc2c(c1)c(=O)n(C)c(=O)n2C (configuration not stated),-12.1%
CCCCOc1ccc(C(=O)NCC(=O)NCC(=O)OCC)cc1,-12.9%
COC(=O)c1sccc1NC(=O)c1csc(C)c1,-13.8%

The list continues:
HPGD inh | structure
-21.3% | CCOC(=O)c1ccc(NC(=O)CSc2nnc(-c3cccs3)n2C)cc1
2.9% | COCCNC(=O)C(=O)N/N=C/c1ccccc1C(F)(F)F
-2.2% | O=C(Nc1ccccc1O)c1cc(S(=O)(=O)N2CCOCC2)c(Cl)cc1Cl
u | COc1ccccc1NC=C1C(=O)OC2(CCCCC2)OC1=O
-5.6% | CC(C)CCCC(C)NS(=O)(=O)Cc1ccccc1 (configuration not stated)
-1.6% | Cc1nn(Cc2c(F)c(F)c(F)c(F)c2F)c(C)c1NC(=O)c1c([N+](=O)[O-])c(C)nn1C
u | N#C/C(=C\c1ccc(O)c(O)c1)C(=O)Nc1ccccc1
-2.1% | CC(C)=CCCC(C)CN(C)CCc1ccccn1 (configuration not stated)
u | [O-][n+]1c2ccc3nonc3c2nn1-c1ccccc1Cl
u | COc1cc(-c2cc(C(=O)Nc3c(Cl)cc(Cl)cc3Cl)c3ccccc3n2)cc(OC)c1OC
-9.8% | Cc1c(C(=O)N2CCOCC2)[nH]c2c1C(=O)CC(c1ccc(Cl)cc1)C2 (configuration not stated)
-13.8% | Cc1ccc(C(=O)Nc2nc3c(s2)CCCC3)o1

A portion of the library; the hit share may differ from the screen's.
